Assay outcomes from PubChem.
Rango complex inh: inhibitors of Rango-importin beta complex formation; Rango CFP/YFP FRET sensor + importin beta, 45 min; Q14974; Potency, µM (highest dose often 92.2 µM), without a hit: top-dose inhibition of complex formation; 340,000 compounds, 0.031% hits; active = rising FRET ratio curve, often small or poorly fitted; inconclusive = mostly compound fluorescence or quenching in the first reads; inactive = flat curves in all reads;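 note: potency is the fitted concentration of half-maximal effect; 0% = DMSO wells and 100% = buffer wells lacking importin beta; nearly all actives have a fitted effect of over 15% in size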
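FRET biosensor (snurportin 1 IBB flanked by EYFP and cerulean), 50 nM, with compound 5 min, then 0.125 microM importin beta in PBS, 1 mM DTT, 0.02% Tween-20, 0.1% BSA. CFP/YFP ratio read after 45 min at room temperature; pre-read flags interference.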
Rango dissoc inh: prevents RanGTP from dissociating the Rango-importin beta complex. 340,000 compounds, 0.071% hits. Biochemical FRET Rango-importin beta, RanGTP-induced dissociation. AID 540253. Potency, µM (titrated, usually from 46.1 µM), for inactives: at the highest dose activity change, negative = inhibition; active means falling FRET ratio curve, often poorly fitted, with flat reads before Ran was added; inconclusive means other falling curves, or compound fluorescence or quenching; inactive means flat or rising ratio curve;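 note: potency is the fitted concentration of half-maximal effect; % of control where 0% means no effect; nearly all actives have a fitted effect of over 45% in size; -100% = wells without RanGTP and RCC1; the record marks most hits as doubtful in a second field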
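Compounds preincubate 5 min with complex of recombinant Rango and importin beta in PBS with 1 mM DTT. Ran (0.6 uM) loaded with 2 mM GTP plus 0.2 uM RCC1 starts dissociation; FRET is recorded 45 min later.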
miR-21 FLuc: miR-21 reporter, rising signal | HeLa miR-21 FLuc reporter, luciferase, 48 h | Potency, µM (series often up to 38.3 µM), inactives show at the top dose reporter change, positive = more light | 340,000 tested, under 10 active | AID 2288; active = well fitted rising curve with a large enough effect; inconclusive = small, poorly fitted or top-dose-only effect; inactive = no such curve, though single readings can be large or run the other way;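 note: % of control where 0% means no effect; miR-21 action dims this reporter so a rising signal means less miR-21 action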
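Luminescence from a firefly luciferase reporter carrying a miR-21 binding site downstream, stably expressed under a CMV promoter in HeLa cells that make miR-21 endogenously, reports miRNA modulation after 48 h compound exposure up to approximately 40uM final.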
GLA inh pH 4.5: blocks human alpha-galactosidase A at pH 4.5. AID 1467. activity change, negative = inhibition, % at 105 µM. purified enzyme, 4-MU-alpha-Gal fluorescence, pH 4.5. 230,000 tested, under 10 active. P06280; inconclusive = small, poorly fitted or top-dose-only inhibition, or a rising curve; inactive = flat fitted curve, though single readings scatter; no compound was filed as active;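 note: 0% = full activity with enzyme and -100% = basal without enzyme; dose as in the result columns while the protocol names 77 µM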
Target sequence (P06280 whole entry, looked up): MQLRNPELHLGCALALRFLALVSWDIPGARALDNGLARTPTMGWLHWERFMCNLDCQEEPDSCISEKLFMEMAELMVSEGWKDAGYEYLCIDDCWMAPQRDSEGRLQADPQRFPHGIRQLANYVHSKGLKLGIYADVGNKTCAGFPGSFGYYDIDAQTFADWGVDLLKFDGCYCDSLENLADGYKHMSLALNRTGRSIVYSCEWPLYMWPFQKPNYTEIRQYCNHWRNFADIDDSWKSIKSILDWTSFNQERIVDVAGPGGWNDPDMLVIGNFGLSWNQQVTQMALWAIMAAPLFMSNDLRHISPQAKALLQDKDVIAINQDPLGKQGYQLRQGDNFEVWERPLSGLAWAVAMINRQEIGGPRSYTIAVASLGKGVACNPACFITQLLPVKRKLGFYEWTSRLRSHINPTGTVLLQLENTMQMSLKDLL
* marks the source's active call; other numbers are inactive results; ? = inconclusive; nt = not tested or not shown; & = joins results of further samples; [ ] = dose if it differs, or a comment. This is a subset. The share of hits here may be higher or lower than overall.

Rango complex inh | Rango dissoc inh | Molecule | miR-21 FLuc | GLA inh pH 4.5
-0.4% | -11.1% | C=CCn1c(SC(C)C(=O)NCc2ccc3c(c2)OCO3)nnc1C1CCCCC1 (stereo unspecified) | -3.4% | -7.5
-2.1% | 3.5% | O=C1c2ccccc2-c2ccc(C(=O)N3CCOCC3)cc21 | -4.1% | 4.3
4.8% | 10.8% | CCOC(=O)Cn1c(N2CCOCC2)nc2c1c(=O)[nH]c(=O)n2C | -2.9% | 3.7
-0.3% | -9.0% | CS(=O)(=O)N(CC(=O)NCCc1ccccc1)C1CCCCC1 | -1.4% | 5.1
-0.4% | 0.1% | Cn1ccc2cc(-c3ccc4ncnc(NCc5cccs5)c4c3)ccc21 | nt | nt
0.6% | 0.9% | Cc1ccc(CN2CCCN(Cc3c(C)cc(C)cc3C)S2(=O)=O)cc1 | -1.1%&0.5% | nt
2.7% | 4.9% | Cc1ccc(/C=N/N=C2/NC(=O)C(CC(=O)Nc3ccc(Cl)cc3)S2)o1 (stereo unspecified) | -4.3% | -8.1
0.9% | -0.9% | C=CCOC(=O)C1=C(C)NC(SCC(N)=O)=C(C#N)C1c1ccc(C)cc1 (stereo unspecified) | 1.4% | -6.6
-2.1% | 2.0% | CCSc1nc(C)c(C(C)=O)cc1C#N | -6.7% | 1.3
-1.5% | 0.5% | CC(=O)N1CCN(C(=O)c2cc(S(=O)(=O)Nc3ccc(S(C)(=O)=O)cc3)ccc2Cl)CC1 | -3.3% | 3.9
-0.6% | -9.3% | O=C(Oc1cccc(NC(=O)c2ccco2)c1)c1ccc(Br)c(S(=O)(=O)N2CCCCC2)c1 | -15.1% | 0.0
-0.3% | -11.2% | Cc1onc(-c2ccccc2Cl)c1C(=O)N1CCN(c2ncccn2)CC1 | -1.0% | -0.4
0.1% | -6.0% | COc1ccc(/C(N)=N/OC(=O)c2ccc(C)c([N+](=O)[O-])c2)cc1OC | -10.7% | 0.0
-0.2% | -4.2% | Cc1ccc(-c2csc(C3C(N)=NC(S)=C(C#N)C34CCCCC4)n2)cc1 (stereo unspecified) | 6.7% | ?
-2.9% | 1.7% | COC(=O)c1ccc(NCc2c(O)ccc(O)c2Br)cc1Cl | nt | nt
-0.5% | -9.0% | COCCNc1nc2ccccc2n2cnnc12 | -5.4% | nt
? | -4.5% | O=[N+]([O-])c1cccc(-c2ccc(SCc3cccnc3)nn2)c1 | -40.0% | -8.3
4.4% | 10.3% | Cc1c(C=O)c2ccccn2c1C(=O)c1ccccc1Cl | -14.8% | nt
0.0% | -9.3% | COc1ccc(-n2nc3c(c2NC(=O)c2c(-c4ccccc4Cl)noc2C)CS(=O)(=O)C3)cc1 | 0.0% | -0.9
-3.7% | -10.0% | CC1=C(C(N)=O)C(c2cccs2)NC(=O)N1 (stereo unspecified) | -0.3% | 0.4
-0.1% | -2.5% | Cc1nc(-c2ccc(-c3ccon3)s2)no1 | -24.1% | -10.0
2.6% | -14.3% | O=C(C/C=N\OCc1ccc([N+](=O)[O-])cc1)Nc1ccc(Cl)cc1 | 2.6% | -0.1
-1.2% | 7.6% | Cc1cc(Br)ccc1NC(=O)CNC(=O)c1cnn(C)c1 | nt | nt
4.4% | 0.7% | O=C(c1cccnc1)N1CCN(Cc2cccc(Br)c2)CC1 | 1.0% | 7.8
1.4% | -2.7% | Cc1ccccc1C(=O)N/N=C/c1ccsc1C | -60.4% | 5.8

One compound at a time (already shown).
Record of Cc1nc(-c2ccc(-c3ccon3)s2)no1 = Rango complex inh: -0.1%; Rango dissoc inh: -2.5%; miR-21 FLuc: -24.1%; GLA inh pH 4.5: -10.0
Record of COc1ccc(-n2nc3c(c2NC(=O)c2c(-c4ccccc4Cl)noc2C)CS(=O)(=O)C3)cc1 = Rango complex inh: 0.0%; Rango dissoc inh: -9.3%; miR-21 FLuc: 0.0%; GLA inh pH 4.5: -0.9

Next records follow.
Rango complex inh | Rango dissoc inh | Molecule | miR-21 FLuc | GLA inh pH 4.5
-0.6% | 3.8% | CCCCCCCCCc1nc2sc3c(c2c(=O)n1NC(=O)c1ccccc1[N+](=O)[O-])CC(C)(C)OC3 | -6.7% | 2.4
-0.4% | -4.7% | CN(CC(=O)Nc1ccc(F)cc1)C(=O)c1cc(-c2cccs2)nn1-c1ccccc1 | nt | nt
-0.2% | -4.5% | CN(C1CCS(=O)(=O)C1)S(=O)(=O)c1cccs1 (stereo unspecified) | nt | nt
-2.6% | 4.3% | Cc1c(C(=O)O)nnn1-c1nonc1N | -0.3% | 0.7
3.9% | -4.2% | Cc1cccc(NC(=O)c2nc[nH]c2C(=O)NCCN(CCNC(=O)c2[nH]cnc2C(=O)Nc2cccc(C)c2)CCNC(=O)c2[nH]cnc2C(=O)Nc2cccc(C)c2)c1 | nt | nt
-0.4% | -14.8% | COc1ccc(NS(=O)(=O)c2ccc(C)c(C(=O)OC(C)C(=O)N3CCOCC3)c2)cc1 (stereo unspecified) | nt | nt
5.0% | 4.8% | Cn1c2ccccc2c2cnn(CC(=O)Nc3ccc(Cl)cc3)c(=O)c21 | -0.3% | 2.2
-2.1% | -5.0% | COc1nn(C(C)C(=O)N2N=C(C(F)F)CC2(O)C(F)F)cc1[N+](=O)[O-] (stereo unspecified) | -8.4% | -1.8
0.2% | 18.8% | CCCCOC(=O)Nc1nnc(CCOCC)s1 | -10.3% | 6.2
-4.3% | 1.2% | NS(=O)(=O)c1ccc(CCNC(=O)COC(=O)CN2C(=O)C3CCCCC3C2=O)cc1 (stereo unspecified) | 2.6% | 6.5
1.3% | 14.9% | COc1ccc(-c2noc(CNC(=O)CCN3C(=O)[C@H]4CC=CC[C@H]4C3=O)n2)cc1 | -9.6% | nt
5.8% | 16.4% | CCN(CC(=O)Nc1ccccc1C(F)(F)F)C(=O)CCOc1ccc(C)cc1 | nt | nt
? | ? | COc1ccc(C2c3ccc(O)cc3Oc3ncn(CC(C)C)c(=N)c32)cc1 (stereo unspecified) | -10.6% | -0.1
-4.5% | -10.2% | CN(C)c1ccc(P(=O)(OCc2ccccc2)C(O)c2ccc(Cl)cc2)cc1 (stereo unspecified) | 0.4% | -7.9
3.5% | 3.3% | COc1nc(N2CCCCCC2)nc(N2CCCCCC2)n1 | -1.2% | -7.7
0.3% | -22.0% | Nc1ccc2c(=O)[nH][nH]c(=O)c2c1 | nt | nt
4.6% | -0.9% | CC(C)c1ccc(/C=N/NC(=O)CC(=O)NC2CCCCC2)cc1 | 0.5% | 2.0
2.6% | -1.8% | O=[N+]([O-])c1cccc(Oc2cnccn2)c1 | -1.9% | nt
-3.4% | -3.5% | COC(=O)c1ccc(NC(=O)c2nc(S(=O)(=O)Cc3cccc(C)c3)ncc2Cl)cc1 | 20.2% | nt
-1.1% | -6.3% | Cc1cccc(NC(=O)NC(C)C(c2ccccc2)N2CCN(C)CC2)c1 (stereo unspecified) | -4.6% | -2.5
2.5% | 14.5% | CCn1c(N2CCN(C(=S)NC)CC2)nc2ccccc21 | -4.9% | 4.4
? | 5.0% | Cc1nc(SCc2nc3c(C)cccc3[nH]2)c2oc3ccccc3c2n1 | nt | nt
0.1% | -0.5% | CC(C)(C)NC(=O)Cn1c(Cl)nc2ccccc21 | -1.3% | 5.4
-0.1% | -9.5% | COc1ccc(S(=O)(=O)N2CCCC2CNC(=O)C(=O)NC2CC2)cc1 (stereo unspecified) | nt | nt
1.8% | 2.4% | CC(=O)Nc1cc2c(ccc3ccccc32)oc1=O | -3.1% | ?
-0.2% | 0.0% | Cc1ccc2oc(=O)c3cnn(CC(=O)NCCN4CCOCC4)c3c2c1 | 2.4% | 6.2
1.3% | 0.8% | CC1CC(C)CN(S(=O)(=O)c2ccc3oc(=O)ccc3c2)C1 (stereo unspecified) | -3.6% | nt
3.4% | -0.4% | CCN(C(=O)CSc1nnc(-c2cccc(Cl)c2)n1N)c1c(N)n(Cc2ccccc2)c(=O)[nH]c1=O | nt | nt
-3.6% | -8.3% | COc1ccc(-n2nnnc2SCC(=O)NNC(=O)c2ccc([N+](=O)[O-])cc2)cc1 | -5.0% | -4.5
3.9% | -9.0% | CC(CC(=O)c1ccc(F)cc1)N1CCN(c2ccccc2)CC1 (stereo unspecified) | nt | nt
-2.7% | -6.6% | O=S(=O)(c1ccc(-c2csc(-c3cccnc3)n2)cc1)N1CCCCC1 | -8.3% | -5.1
0.3% | -0.5% | COc1ccc(-c2c(=O)n(OCc3ccccn3)c3ccccc3[n+]2[O-])cc1OC | -10.1% | -2.5
-0.4% | 1.7% | CCOC(=O)c1c(C)c(C(=O)NC(C)COC)c(C)n1C (stereo unspecified) | -4.4% | 6.6
-1.9% | 5.8% | Cc1nc2ncnn2c(C)c1CCC(=O)Nc1csc(N)n1 | -0.8% | -21.3
2.4% | 2.2% | CN(C)c1cc(-c2ccc(Cl)cc2Cl)oc(=O)c1Cl | -18.2% | -1.0
-0.9% | -10.1% | CN1c2ccccc2C2(C)CCCC3=Cc4cc([N+](=O)[O-])cc([N+](=O)[O-])c4OC312 (stereo unspecified) | -2.6% | -1.5
-0.3% | 1.2% | COc1cccc(NC(=S)N2CCc3cc(OC)c(OC)cc3C2COc2ccc3c(C)cc(=O)oc3c2)c1 (stereo unspecified) | -15.8% | 4.6
2.4% | 1.0% | CCOC(=O)c1ccc(NC(=O)Nc2ccc(S(N)(=O)=O)cc2)cc1 | -0.2% | -0.5
0.7% | -0.1% | O=S(=O)(Cc1cccc(F)c1)c1c[nH]c2ccccc12 | -19.3% | 2.1
-2.0% | 0.0% | CCOc1ccc(C2CC(=O)NC(SC)=C2C#N)cc1 (stereo unspecified) | -13.9% | 0.5
-1.9% | 1.4% | COc1ccc(CN2CCC(=O)N([C@H](CO)c3ccccc3)CC2)cc1 | -8.9% | nt
4.9% | -2.4% | Cc1c(C(=O)OCC(=O)Nc2ccc(C(=O)N(C)C)cc2)oc2ccccc12 | -5.1% | nt
2.5% | 2.1% | COCCCNC(=O)C1CCCN(S(=O)(=O)c2cccc3nsnc23)C1 (stereo unspecified) | 1.9% | nt
? | -26.2% | Fc1ccccc1-c1csc(=Nc2cccnc2)n1CCCn1ccnc1 | 19.2% | -7.0
-0.4% | -18.1% | O=C(CC1NC(=O)NC1=O)NC1(C(=O)NC2CCCCC2)CCCCC1 (stereo unspecified) | -1.3% | -0.9
1.0% | -23.6% | COc1ccccc1C(=O)COC(=O)CCNS(=O)(=O)c1ccc(C)c(C)c1 | nt | nt
-6.1% | -10.0% | CC(N=Cc1ccccc1O)c1ccccc1 (stereo unspecified) | -0.2% | 11.7
-5.4% | -8.6% | CCOC(=O)N1CCN(C(=O)Cc2ccccc2OC)CC1 | 4.5% | nt
-4.0% | 0.2% | O=S(=O)(c1ccccc1)c1nc(Nc2ccccc2N2CCOCC2)sc1Cl | 16.1% | -4.7
-0.7% | 23.6% | COc1ccc(C(NC(=O)N2CC(C)OC(C)C2)C(Cl)(Cl)Cl)cc1F (stereo unspecified) | -0.4% | -2.7

(cont.)
Rango complex inh | Rango dissoc inh | Molecule | miR-21 FLuc | GLA inh pH 4.5
-0.4% | -5.3% | CC1CC(=O)Nc2ccccc2N1S(=O)(=O)c1ccccc1 (stereo unspecified) | -2.7% | -3.5
3.0% | 9.6% | Cc1ccccc1-n1nc2c(c1NC(=O)c1ccc(S(=O)(=O)N(C)C)cc1)CSC2 | -4.5% | 9.0
-1.5% | 2.0% | CC(=O)Nc1cccc(/C(C)=N/NC(=O)c2ccc(CN3CCOCC3)cc2)c1 | -2.4% | -0.3[21.1 µM]
6.4% | 0.0% | O=S(=O)(NC1CCCC1)c1ccc(S(=O)(=O)N2CCN(c3ccccc3)CC2)cc1 | 0.9% | 6.0
0.2% | -2.5% | Cc1ccc(S(=O)(=O)NNC(=O)C2CC=CCC2C(=O)O)cc1 (stereo unspecified) | -6.5% | 7.2
-0.9% | 0.9% | COC(=O)C1=C(C)N(Cc2ccccc2)C(=O)N[C@H]1CCc1ccccc1 | nt | -12.7
-2.1% | -3.2% | O=C(NCC(=O)N(CCc1ccccc1)C(C(=O)NC1CCCCC1)c1ccncc1)c1ccco1 (stereo unspecified) | -10.8% | -2.5
